From PubChem BioAssay
DUX4 inh: DUX4-mediated transcription inhibition; 37,000 compounds, 0.8% hits; 293T-iDUX4 ZSCAN4-Gaussia luciferase reporter, 24 h; hits give low values; AID 1224904; activity change, negative = inhibition, % (no concentration beside the values);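 active = -10% or lower and over 25 points stronger than a control reporter; inconclusive = -10% or lower with a smaller gap; inactive = above -10%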;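 also: 0% = median of neutral control wells and -100% = median of positive control wells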
DUX4 inh difference: recorded beside DUX4 inh, whose call it bears; Gaussia minus Italica difference, %; measured here: selective DUX4 reporter inhibition;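 worked out from the two reporters; negative = selective loss of the DUX4 reporter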
DUX4 inh control: recorded beside DUX4 inh, whose call it bears; activity change, negative = inhibition, %; measured here: Italica tet-on control reporter;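 0 = neutral control and -100 = positive control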
The depositor's hits bear a star; ? = inconclusive; · = no result given; & = joins results of further samples. Some of the compounds tested. The share of hits here may be higher or lower than overall.

SMILES | DUX4 inh | DUX4 inh difference | DUX4 inh control
COCC(=O)Nc1ccc2c(c1)OC[C@@H](C)N(Cc1ccccc1C(=O)O)C[C@@H](C)[C@H](OC)CN(C)C2=O | 2 | 4 | -2.1
COc1ccccc1CNC(=O)C[C@@H]1CC[C@H]2[C@@H](COC[C@@H](O)CN2C(=O)Nc2ccc(C(F)(F)F)cc2)O1 | 5 | -2 | 7.3
O=C(C[C@@H]1C[C@H]2c3cc(NC(=O)C4CCC4)ccc3O[C@H]2[C@@H](CO)O1)NCc1ccc(Cl)cc1 | 5 | -7 | 11
Cc1ccc(-c2ccc([C@@H]3[C@H](CO)N4C(=O)CN(C(=O)CN5CCOCC5)C[C@@H]34)cc2)cc1 | -7 | -6 | -1.0
Fc1ccccc1CN1[C@@H]2CNC[C@H]1C2c1ccc(-c2ccccc2)cc1 (stereo partly specified) | 6 | 12 | -6.6
Cc1cccc(-c2ccc([C@@H]3[C@@H](CO)N4C(=O)CN(S(=O)(=O)c5cccc(F)c5)C[C@@H]34)cc2)c1 | 0 | -10 | 9.4
CNC(=O)C[C@@H]1CC[C@H]2[C@@H](COC[C@H](O)CN2S(=O)(=O)c2ccc(Oc3ccccc3)cc2)O1 | 3 | 9 | -6.2
CO[C@H]1CN(C)C(=O)c2ccc(NC(C)=O)cc2OC[C@H](C)N(C(=O)C2CCOCC2)C[C@H]1C | -1 | 0 | -0.6
CC(C)NC(=O)Nc1ccc2c(c1)C(=O)N(C)[C@H]1CC[C@@H](CC(=O)NCC3CCCCC3)O[C@H]1CO2 | -3 | -5 | 2.3
Cc1noc(C)c1NC(=O)N(C)C[C@H]1Oc2cc(C#CCN(C)C)ccc2S(=O)(=O)N([C@H](C)CO)C[C@H]1C | -3 | -2 | -0.1
N#Cc1cccc(-c2ccc3c(c2)[C@H]2[C@H](CCN2Cc2cncnc2)[C@H](CO)N3)c1 | ? | · | ·
CO[C@@H](CN(C)S(=O)(=O)c1cccc(Cl)c1)[C@H](C)CN(C(=O)Nc1ccccc1F)[C@H](C)CO | -3 | -2 | -1.2
O=S(=O)(N[C@H]1CC[C@H](CCn2cc(-c3cccnc3)nn2)O[C@H]1CO)c1ccc(Cl)cc1 | 2 | 5 | -2.8
CCCC(=O)N1CC2(CCN(C(=O)Nc3cccc(F)c3)CC2)c2c(n(C)c3cc(OC)ccc23)[C@@H]1CO | -9 | -1 | -8.2
CNC(=O)C[C@H]1CC[C@@H]2[C@H](COC[C@H](O)CN2C(=O)Nc2ccc(Cl)c(Cl)c2)O1 | 9 | 10 | -0.7
C[C@H]1CCCCO[C@H](CN(C)C(=O)c2ccncc2)[C@@H](C)CN([C@@H](C)CO)C(=O)c2cc(N(C)C)ccc2O1 | 2 | -1 | 3.5
C[C@@H]1CCCCO[C@@H](CN(C)S(=O)(=O)c2ccccc2)[C@H](C)CN([C@@H](C)CO)C(=O)c2cc(NC(=O)Nc3ccc4c(c3)OCO4)ccc2O1 | 4 | 4 | -0.1
COc1ccc(-c2ccc3n(c2=O)C[C@@H]2[C@@H](CO)[C@H](C(=O)NCCN4CCCCC4)N(C)[C@H]32)cc1 | 1 | 3 | -1.9
C[C@@H]1CN([C@H](C)CO)C(=O)c2cccc(NC(=O)c3nc4ccccc4s3)c2O[C@H]1CN(C)Cc1ccc(C(F)(F)F)cc1 | -4 | -3 | -1.3
COc1ccc(S(=O)(=O)Nc2cccc3c2O[C@H](CN(C)Cc2ccc(C(F)(F)F)cc2)[C@H](C)CN([C@H](C)CO)C3=O)cc1 | 3 | 5 | -1.4
C[C@H](CO)N1C[C@H](C)[C@H](CN(C)CC2CCCCC2)OCCCC[C@H](C)Oc2ccc(NC(=O)C3CCCCC3)cc2C1=O | 1 | -2 | 2.6
CO[C@@H]1CN(C)C(=O)c2ccc(NS(C)(=O)=O)cc2OC[C@H](C)N(C(=O)CN(C)C)C[C@H]1C | 5 | -1 | 6.0
Cc1ccccc1S(=O)(=O)N1CC(=O)N2[C@H](C1)[C@H](c1ccc(C#CCN(C)C)cc1)[C@@H]2CO | -5 | -4 | -1.4
CCCC(=O)Nc1ccc2c(c1)OC[C@@H](C)N(Cc1nccs1)C[C@H](C)[C@@H](OC)CN(C)C2=O | -2 | 0 | -1.3
Cc1noc(C)c1NC(=O)N[C@@H]1C=C[C@@H](CC(=O)N2CCCCC2)O[C@@H]1CO | 3 | 0 | 2.4

(list continues)
SMILES | DUX4 inh | DUX4 inh difference | DUX4 inh control
CCCC#Cc1ccc([C@@H]2[C@H](CO)N3C(=O)CN(C(=O)CN4CCOCC4)C[C@@H]23)cc1 | 13 | -3 | 16
COc1ccc(S(=O)(=O)Nc2ccc3c(c2)C(=O)N([C@H](C)CO)C[C@H](C)[C@H](CN(C)Cc2ccc(C(F)(F)F)cc2)OCCCC[C@H](C)O3)cc1 | -3 | -1 | -1.9
COc1ccc(C#Cc2ccc3c(c2)[C@H]2[C@H](CCN2Cc2nccs2)[C@H](CO)N3)cc1 | ? | · | ·
Cc1ccccc1NC(=O)C[C@H]1CC[C@H]2[C@@H](COc3ccc(NC(=O)NC(C)C)cc3C(=O)N2C)O1 | 0 | -5 | 5.1
CCCNC(=O)C[C@@H]1CC[C@H]2[C@H](COc3ccc(NC(=O)Nc4c(C)noc4C)cc3C(=O)N2C)O1 | -3 | -6 | 3.4
CCCNC(=O)N1CC2(C1)CN(Cc1ccccc1)[C@@H](CO)c1[nH]c3cc(OC)ccc3c12 | -10* | -25* | 15*
CCS(=O)(=O)N1CC2(C1)[C@H](c1ccccc1)[C@@H](CO)N2C(=O)C1CC1 | 8 | 1 | 7.3
O=C(C[C@@H]1CC[C@H]2[C@@H](COC[C@@H](O)CN2Cc2cccc(F)c2)O1)NCCc1ccncc1 | 3 | 2 | 1.2
CCS(=O)(=O)N1CCCCN2[C@H](CO)[C@@H](c3ccc(-c4ccccc4F)cc3)[C@@H]2C1 | -1 | -2 | 1.1
C[C@H](CO)N1C[C@H](C)[C@@H](CN(C)C(=O)Nc2ccc(-c3ccccc3)cc2)OCc2ccccc2-c2c(n(C)c3ccccc23)C1=O | ? | · | ·
C[C@@H]1CN([C@H](C)CO)C(=O)c2c(c3ccccc3n2C)-c2ccccc2CO[C@H]1CN(C)C(=O)C1CC1 | -7 | 2 | -8.3
C[C@H](CO)N1C[C@H](C)[C@H](CN(C)Cc2ccc(Cl)c(Cl)c2)OCc2cnnn2CCCC1=O | ? | · | ·
CCC(=O)Nc1ccc2c(c1)OC[C@@H](C)N(C(=O)c1ccncc1)C[C@H](C)[C@@H](OC)CN(C)C2=O | -1 | -5 | 4.0
O=C(NC[C@@H]1[C@@H](c2ccccc2)[C@@H](CO)N1CC1CCCC1)c1ccncc1 | 7 | 7 | 0.0
C[C@@H]1CCCCO[C@@H](CN(C)C(=O)Nc2ccc3c(c2)OCO3)[C@H](C)CN([C@@H](C)CO)C(=O)c2cc(NC(=O)Nc3ccc(C(F)(F)F)cc3)ccc2O1 | -2 | 1 | -3.2
COc1cccc(S(=O)(=O)N2[C@@H]3CNC[C@H]2C3c2ccc(-c3ccccc3OC)cc2)c1 (stereo partly specified) | 22&11 | 23&4 | -1.0&7.3
Cc1cccc(-c2ccc(C3[C@H]4CNC[C@@H]3N4S(=O)(=O)c3ccccc3F)cc2)c1 (stereo partly specified) | 5&11 | 16&7 | -12&4.1
CC(C)C#Cc1ccc([C@@H]2[C@H]3CN(C(=O)c4ccc5c(c4)OCO5)CC(=O)N3[C@H]2CO)cc1 | -7 | 6 | -13
COc1ccccc1C#Cc1cnc2c(c1)C(=O)N([C@@H](C)CO)C[C@@H](C)[C@@H](CN(C)C(=O)CN(C)C)O2 | 3 | 4 | -1.3
C/C=C/c1ccc([C@H]2[C@H](CO)N3C(=O)CN(C(=O)Nc4cccc(OC)c4)C[C@@H]23)cc1 | 16 | 7 | 9.0
CC(=O)N1[C@H](C(=O)NCc2ccccc2Cl)[C@@H](CO)[C@@H]2Cn3c(ccc(-c4ccccc4)c3=O)[C@@H]21 | 6 | 9 | -3.0
O=C(C[C@@H]1CC[C@@H]2[C@H](COC[C@H](O)CN2CC2CCCCC2)O1)NCc1ccc(Cl)cc1 | ? | · | ·
CNC[C@@H]1OCCCC[C@@H](C)Oc2ccc(NC(=O)c3ccncc3)cc2C(=O)N([C@H](C)CO)C[C@@H]1C | -1 | -2 | 1.5
COCC(=O)Nc1ccc2c(c1)[C@H]1C[C@H](CC(=O)NCc3ccc(-c4ccccc4)cc3)O[C@H](CO)[C@H]1O2 | ? | · | ·
C/C=C/c1ccc([C@@H]2[C@H](C#N)N(C(=O)NC3CCCC3)[C@H]2CO)cc1 | 0 | -7 | 6.8

The list goes on:
SMILES | DUX4 inh | DUX4 inh difference | DUX4 inh control
CO[C@@H]1CN(C)C(=O)c2ccc(NC(=O)c3ccccc3F)cc2OC[C@@H](C)N(C)C[C@H]1C | 1 | 1 | 0.7
COc1ccccc1S(=O)(=O)N[C@@H]1C=C[C@@H](CC(=O)N2CCOCC2)O[C@@H]1CO | 0 | 5 | -4.7
CCC(=O)N1CCC2(CC1)CN(Cc1cccc(F)c1)[C@H](CO)c1c2c2ccc(OC)cc2n1C | ? | · | ·
O=C(N[C@@H]1C=C[C@@H](CC(=O)N2CCCCC2)O[C@H]1CO)c1ccc2c(c1)OCO2 | 4 | 3 | 1.2
CCCNC(=O)N1[C@H](C#N)[C@@H](c2ccc(C3=CCCC3)cc2)[C@H]1CO | 2 | 2 | -0.3
C/C=C/c1ccc([C@H]2[C@@H](CO)N(C(=O)CN(C)C)[C@@H]2CNC(=O)CC)cc1 | -2 | -1 | -1.2
CCC(=O)N1[C@@H]2c3ccc(-c4ccccc4F)c(=O)n3C[C@H]1[C@H](CO)[C@H]2C(=O)NC1CCC1 | 3 | -1 | 3.9
O=C(CC1CC1)N1CC2(C1)[C@H](c1ccccc1)[C@H](CO)N2C(=O)C1CCOCC1 | 0 | -1 | 1.8
COc1ccc(NC(=O)N(C)C[C@H]2Oc3ncc(C#C[C@H](C)O)cc3C(=O)N([C@H](C)CO)C[C@H]2C)cc1 | 1 | -5 | 5.9
COc1ccccc1NC(=O)N1CC(=O)N2[C@H](C1)[C@@H](c1ccc(C#CCC(C)C)cc1)[C@@H]2CO | 13 | 19 | -5.8
CC(=O)N1[C@@H]2c3ccc(-c4ccccc4F)c(=O)n3C[C@H]1[C@H](CO)[C@H]2C(=O)N1CCOCC1 | -1 | -1 | -0.6
CO[C@H]1CC[C@H]2CCOc3ccc(C#N)cc3C(=O)N(C)C[C@@H](OC)[C@@H](C)C(=O)N(C)C[C@H]1O2 | 0 | -1 | 0.9
CN1c2ccc(Br)cc2[C@@H]2[C@@H](CCN2S(=O)(=O)c2ccccc2)[C@H]1CO | 2 | -4 | 6.6
CN(C)C(=O)C[C@@H]1CC[C@@H]2[C@H](COc3ccc(NC(=O)C4CCCCC4)cc3C(=O)N2C)O1 | -2 | -2 | -0.4
CCCN(C)C[C@H]1OCCCC[C@H](C)Oc2ccc(NS(=O)(=O)c3ccc(C)cc3)cc2C(=O)N([C@H](C)CO)C[C@H]1C | -2 | 6 | -8.0
C[C@@H]1CN([C@H](C)CO)C(=O)Cc2cc(NC(=O)CCCCCC(=O)Nc3ccccc3N)ccc2O[C@@H]1CN(C)S(=O)(=O)c1cccs1 | 0 | -3 | 2.2
N#C[C@@H]1[C@H](c2ccc(C3=CCCC3)cc2)[C@H](CO)N1S(=O)(=O)c1ccccc1 | -2 | -5 | 2.9
CCCC#Cc1ccc([C@@H]2[C@H](C#N)N(C(=O)CN3CCOCC3)[C@H]2CO)cc1 | 0 | -2 | 2.1
Cc1ccc(S(=O)(=O)N[C@H]2CC[C@@H](CC(=O)N3CCc4ccccc4C3)O[C@@H]2CO)cc1 | -4 | -2 | -1.9
CCCC#Cc1ccc([C@H]2[C@@H](CO)N(C(C)=O)[C@@H]2CNC(=O)C2CC2)cc1 | -5 | -3 | -1.8
CN(C[C@H]1N[C@@H](CO)[C@H]1c1ccc(-c2ccc(F)cc2)cc1)C(=O)C1CCC1 | 0 | 0 | -0.7
C[C@H](CO)N1C[C@H](C)[C@H](CN(C)S(C)(=O)=O)Oc2ccc(NC(=O)NC3CCCCC3)cc2C1=O | -2 | -2 | -0.1
CCS(=O)(=O)N1CC2(CN(Cc3ccc(F)cc3)[C@H](CO)c3c2c2ccc(OC)cc2n3C)C1 | -3 | -1 | -2.6
CNC[C@@H]1Oc2c(NS(=O)(=O)c3ccc(Cl)cc3)cccc2C(=O)N([C@H](C)CO)C[C@H]1C | -2 | 0 | -1.8

9 structures already listed, ordered by formula weight, ascending:
SMILES | DUX4 inh | DUX4 inh difference | DUX4 inh control
N#C[C@@H]1[C@H](c2ccc(C3=CCCC3)cc2)[C@H](CO)N1S(=O)(=O)c1ccccc1 | -2 | -5 | 2.9
O=C(N[C@@H]1C=C[C@@H](CC(=O)N2CCCCC2)O[C@H]1CO)c1ccc2c(c1)OCO2 | 4 | 3 | 1.2
COc1ccccc1S(=O)(=O)N[C@@H]1C=C[C@@H](CC(=O)N2CCOCC2)O[C@@H]1CO | 0 | 5 | -4.7
Cc1ccc(S(=O)(=O)N[C@H]2CC[C@@H](CC(=O)N3CCc4ccccc4C3)O[C@@H]2CO)cc1 | -4 | -2 | -1.9
COc1ccccc1NC(=O)N1CC(=O)N2[C@H](C1)[C@@H](c1ccc(C#CCC(C)C)cc1)[C@@H]2CO | 13 | 19 | -5.8
CCC(=O)N1CCC2(CC1)CN(Cc1cccc(F)c1)[C@H](CO)c1c2c2ccc(OC)cc2n1C | ? | · | ·
CNC[C@@H]1Oc2c(NS(=O)(=O)c3ccc(Cl)cc3)cccc2C(=O)N([C@H](C)CO)C[C@H]1C | -2 | 0 | -1.8
CCS(=O)(=O)N1CC2(CN(Cc3ccc(F)cc3)[C@H](CO)c3c2c2ccc(OC)cc2n3C)C1 | -3 | -1 | -2.6
COc1ccc(NC(=O)N(C)C[C@H]2Oc3ncc(C#C[C@H](C)O)cc3C(=O)N([C@H](C)CO)C[C@H]2C)cc1 | 1 | -5 | 5.9
